E coli growth: blocks Escherichia coli growth | OD600 absorbance (no concentration beside the values) | AID 1053175 | OD600, 23 h; active compounds read low | 330,000 tested, 0.21% active;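 active = OD600 absorbance below the run mean of sample wells minus 3.6 SD, in any replicate, cut at about 0.56 in these data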;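 also: stock transfer was 300 nL into about 60 µL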
Vif TR-FRET: HIV-1 Vif–A3G interaction blockers – biochemical, TR-FRET, GST-Vif 1-94, biotin-A3G peptide, dose response retest, primary screen (AID 1117319). TR-FRET GST-Vif / biotin-A3G peptide binding; higher % means a stronger effect; test concentration not given here; strong numbers were not always called active. inhibition, %, or IC50 in µM where a hit was titrated. 260,000 tested, 0.57% active;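 active = above the screen mean plus three standard deviations and confirmed in dose response; inconclusive = results disagree or hit not tested in dose response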;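 also: Vif residues 1-94 fused to GST binding biotinylated APOBEC3G peptide 110-148; 0% = full assay without inhibitor and 100% = GST in place of GST-Vif; retest series ran down from 100 µM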
ALR inh: human ALR oxidase inhibition via reduced H2O2. P55789. purified ALR, DTT oxidation, H2O2 HRP-luminol luminescence. inhibition, % (no concentration beside the values). 290,000 tested, 3.8% active. AID 485317;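 active = mean and each replicate at 75% or more; inconclusive = only one of the two met; inactive = neither met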;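 also: stock transfer was 7.5 nL into about 7.5 µL; 0% = neutral wells and 100% = wells with inactivated enzyme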
Target sequence (P55789 whole entry, looked up): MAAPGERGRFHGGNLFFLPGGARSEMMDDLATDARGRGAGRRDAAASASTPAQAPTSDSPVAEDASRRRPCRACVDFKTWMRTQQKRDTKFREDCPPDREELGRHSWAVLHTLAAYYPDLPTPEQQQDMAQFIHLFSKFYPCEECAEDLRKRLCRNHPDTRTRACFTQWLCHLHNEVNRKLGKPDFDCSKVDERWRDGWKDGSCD
HNF4A DNA FP: change in binding of human HNF4 alpha to DNA; 360,000 tested, 0.3% active; P41235; activity change, % at 10 µM; HNF4a-FITC DNA binding, fluorescence polarization, 1 h; in the data active = activity change above about 30%, passing the limit was not always enough;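 also: controls were the assay level and a saturating level of protein; the project sought stronger binding though the title names inhibitors; some compounds called inactive have numbers as strong as hits; positive values seem to mean higher polarization but the record does not say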
rRNA inh HTS: selective bacterial rRNA inhibition in E. coli; GFP signal change (wild-type ribosome), % (no concentration beside the values); E. coli WT GFP vs humanized-ribosome RFP mutants, fluorescence, 24 h; active compounds read low; DMSO median 0, no signal -100; AID 720706; 350,000 tested, 1.6% active;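 active = significant combined selectivity score with lowered wild-type GFP, culture density cut under 30%, mutant RFP and density less affected; inactive = any of these conditions unmet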; also: one replicate is shown; some compounds called inactive have numbers as strong as hits
FGF22 binding: shifts melting point of recombinant human FGF22 | Q9HCT0 | recombinant FGF22 thermal shift, SYPRO orange fluorescence; percent of sucrose octasulfate shift, DMSO zero | calls only at 9.99 µM | 340,000 tested, 1.5% active | AID 651658;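 active = melting point raised past a set limit in the mean and every replicate; inconclusive = no clear call; three in four hits are not shown here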
Target sequence (Q9HCT0 whole entry, looked up): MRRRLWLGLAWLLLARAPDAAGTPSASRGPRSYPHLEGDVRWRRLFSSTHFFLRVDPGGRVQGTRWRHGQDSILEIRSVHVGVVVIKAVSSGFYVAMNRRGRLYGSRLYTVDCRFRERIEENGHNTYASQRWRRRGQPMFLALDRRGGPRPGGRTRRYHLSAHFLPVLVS
AF4-AF9 inh: blocks AF4 peptide binding to human AF9 | inhibition, % at 10 µM | P42568 | 350,000 tested, 0.47% active | AlphaScreen, biotin-AF4 peptide binding to FLAG-AF9;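 active = every replicate reaching a set inhibition limit, whatever the replicate mean, cut at about 25% in these data; inconclusive = mean inhibition reaches that limit but some replicates miss it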;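 also: 0% = plate neutral control median and 100% = total signal loss; the record names both 10 and 1 µM as test concentration; the first replicate is given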
Target sequence (P42568 whole entry, looked up): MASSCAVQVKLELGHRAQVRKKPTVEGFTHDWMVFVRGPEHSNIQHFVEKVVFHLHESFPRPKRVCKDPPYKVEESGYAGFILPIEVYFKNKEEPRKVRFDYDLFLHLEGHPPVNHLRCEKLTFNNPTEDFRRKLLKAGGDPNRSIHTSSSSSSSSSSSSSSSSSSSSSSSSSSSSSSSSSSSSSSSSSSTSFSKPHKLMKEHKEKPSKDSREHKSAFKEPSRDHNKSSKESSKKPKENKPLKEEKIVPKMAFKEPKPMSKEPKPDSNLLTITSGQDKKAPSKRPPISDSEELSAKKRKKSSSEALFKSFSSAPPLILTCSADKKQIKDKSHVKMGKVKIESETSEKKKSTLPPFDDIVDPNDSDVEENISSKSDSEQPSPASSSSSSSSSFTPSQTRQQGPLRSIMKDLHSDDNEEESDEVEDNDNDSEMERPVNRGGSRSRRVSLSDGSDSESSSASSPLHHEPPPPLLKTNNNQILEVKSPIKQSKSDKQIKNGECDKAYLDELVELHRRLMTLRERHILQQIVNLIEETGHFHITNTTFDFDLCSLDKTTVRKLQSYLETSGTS
rRNA inh HTS OD600: also measured in rRNA inh HTS; calls as there; OD600 change, %; measured here: OD600 growth;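 optical density of the mix in the first replicate; 0 = DMSO median and -100 = no signal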
rRNA inh HTS RFP: also measured in rRNA inh HTS; calls as there; RFP signal change, %; measured here: RFP humanized mutant strains;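 first replicate; 0 = DMSO median and -100 = no signal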
Numbers without * were called inactive; & = joins results of further samples. The list is partial; the hit share may differ from the screen's.

Results for COc1ccc2nc(SCC(=O)/C(C#N)=C(\C)N)[nH]c2c1 ?
E coli growth: 0.729; Vif TR-FRET: -1.4%; ALR inh: 7.8; HNF4A DNA FP: -3.8

How did CCOc1c(C)cnc2c1c(=O)n(Cc1ccccc1F)c(=O)n2C do in these assays?
E coli growth: 0.716; Vif TR-FRET: -36.5%; ALR inh: -11.6; HNF4A DNA FP: 0.9; rRNA inh HTS: 2.5; FGF22 binding: inactive; AF4-AF9 inh: -3.3; rRNA inh HTS OD600: 9.4; rRNA inh HTS RFP: -0.5

What do the screens show for `Cc1ccsc1S(=O)(=O)N1CCCC(CCC(=O)NCc2ccccc2F)C1` (centres undefined)?
E coli growth: 0.732; Vif TR-FRET: inconclusive; HNF4A DNA FP: 0.1; rRNA inh HTS: -25.4; FGF22 binding: inactive; AF4-AF9 inh: -1.2; rRNA inh HTS OD600: -30.1; rRNA inh HTS RFP: 4.9

Results for Cc1nn(-c2ccccc2)c(N2CCCC2)c1/C=N/n1cnc2scc(-c3ccccc3)c2c1=O ?
Vif TR-FRET: 0.4%&-10.1%; ALR inh: -3.5; HNF4A DNA FP: -0.8

Results for Cc1cccc(C)c1OCc1cc(C(=O)N2CCNC(=O)C2)no1 ?
E coli growth: 0.659; ALR inh: -13.0; HNF4A DNA FP: -2.5; rRNA inh HTS: 1.2; FGF22 binding: inactive; AF4-AF9 inh: 1.5; rRNA inh HTS OD600: 0.4; rRNA inh HTS RFP: -2.4

How did COc1cccc(NC(=O)CCNS(=O)(=O)c2ccc(Br)s2)c1 do in these assays?
E coli growth: 0.63; ALR inh: 4.3; HNF4A DNA FP: 1.8; rRNA inh HTS: 1.5; FGF22 binding: inactive; AF4-AF9 inh: 2.0; rRNA inh HTS OD600: -25.1; rRNA inh HTS RFP: 7.3

How did CCCC#Cc1ccc2c(c1)O[C@@H](CN(C)C(=O)Nc1ccc(OC)cc1)[C@@H](C)CN([C@H](C)CO)S2(=O)=O do in these assays?
rRNA inh HTS: -8.4; FGF22 binding: inactive; AF4-AF9 inh: 1.9; rRNA inh HTS OD600: -10.7; rRNA inh HTS RFP: 2.0

What do the screens show for `O=C(Nc1cc([N+](=O)[O-])ccc1O)c1cccc([N+](=O)[O-])c1`?
E coli growth: 0.679; ALR inh: 15.8; HNF4A DNA FP: 3.5; rRNA inh HTS: -1.2; FGF22 binding: inactive; AF4-AF9 inh: 6.6; rRNA inh HTS OD600: 2.9; rRNA inh HTS RFP: 5.1

How did COc1ccc(C(C(=O)NCc2ccccc2)N(C(=O)c2snc(C(N)=O)c2N)C2CCCC2)cc1 (centres undefined) do in these assays?
E coli growth: 0.664; ALR inh: -2.2; HNF4A DNA FP: -0.6; rRNA inh HTS: -3.3; FGF22 binding: inactive; AF4-AF9 inh: 5.2; rRNA inh HTS OD600: -16.9; rRNA inh HTS RFP: 7.7

Results for Cc1cccc(C)c1-n1nnnc1C(c1ccnc2ccccc12)N1CCN(c2ccccc2F)CC1 (centres undefined) ?
HNF4A DNA FP: -5.4; rRNA inh HTS: 2.3; FGF22 binding: inactive; AF4-AF9 inh: 0.7; rRNA inh HTS OD600: 9.7; rRNA inh HTS RFP: -7.3

Results for CO[C@H]1CC[C@H]2CCN(C)C(=O)CCCN(C)C(=O)c3cccc(C#N)c3OC[C@@H]1O2 ?
rRNA inh HTS: -1.7; FGF22 binding: inactive; AF4-AF9 inh: -0.9; rRNA inh HTS OD600: -8.0; rRNA inh HTS RFP: 1.1

Results for COC(=O)[C@@]12C[C@@H](CC(=O)NCc3ccc(C)o3)C(=O)N(Cc3cccc4ccccc34)C1=CCC(C)(C)C2 ?
HNF4A DNA FP: 2.7; rRNA inh HTS: 6.6; FGF22 binding: inactive; AF4-AF9 inh: 0.6; rRNA inh HTS OD600: 1.3; rRNA inh HTS RFP: 0.6

Results for C=C(C)CNC(=S)N/N=C/c1ccc([N+](=O)[O-])cc1 ?
ALR inh: -1.3; HNF4A DNA FP: -3.8; rRNA inh HTS: 9.5; FGF22 binding: inactive; AF4-AF9 inh: 2.1; rRNA inh HTS OD600: 3.2; rRNA inh HTS RFP: 2.9

How did C[C@H]1CN([C@@H](C)CO)C(=O)c2cc(C#CC3CC3)cnc2O[C@H]1CN(C)Cc1ccccn1 do in these assays?
rRNA inh HTS: 5.1; FGF22 binding: inactive; AF4-AF9 inh: -0.4; rRNA inh HTS OD600: 18.0; rRNA inh HTS RFP: 2.0

Results for Cc1nn(-c2ccccc2)cc1C(c1c(N)[nH]c(=S)[nH]c1=O)c1c(N)[nH]c(=S)[nH]c1=O ?
Vif TR-FRET: 4.1%; ALR inh: 39.1; HNF4A DNA FP: -1.3; rRNA inh HTS: 21.9; AF4-AF9 inh: -12.2; rRNA inh HTS OD600: 9.5; rRNA inh HTS RFP: -0.6

What do the screens show for `CC1=NN(c2ccc([N+](=O)[O-])cc2)C(c2ccccc2)C1` (centres undefined)?
E coli growth: 0.685; Vif TR-FRET: -7.5%; ALR inh: 25.8; HNF4A DNA FP: 1.0; rRNA inh HTS: -20.6; AF4-AF9 inh: 2.1; rRNA inh HTS OD600: -28.6; rRNA inh HTS RFP: -7.2

Results for CC(=O)Nc1ccc(S(=O)(=O)N2CCC(c3nc4c(nnn4Cc4ccccc4Cl)c(=O)[nH]3)CC2)cc1 ?
E coli growth: 0.641; ALR inh: 2.6; HNF4A DNA FP: 1.4; rRNA inh HTS: -2.5; FGF22 binding: inactive; AF4-AF9 inh: -2.7; rRNA inh HTS OD600: -19.9; rRNA inh HTS RFP: 2.0

What do the screens show for `CC1CC(C)CN(C(=O)CCc2nnc3ccc(N4CCCCC4)nn23)C1` (centres undefined)?
E coli growth: 0.675; Vif TR-FRET: 6.3%; ALR inh: 0.7; HNF4A DNA FP: -0.6; rRNA inh HTS: -0.5; FGF22 binding: inactive; AF4-AF9 inh: -14.5; rRNA inh HTS OD600: -4.5; rRNA inh HTS RFP: 0.0

What do the screens show for `CN(C)CC(=O)N[C@H]1C=C[C@@H](CC(=O)NCCN2CCCCC2)O[C@H]1CO`?
rRNA inh HTS: 2.8; FGF22 binding: inactive; AF4-AF9 inh: 2.0; rRNA inh HTS OD600: 0.1; rRNA inh HTS RFP: -1.4

How did Cc1ccc(CCCOC(=O)C[N+]2(C)CCOCC2)cc1 do in these assays?
E coli growth: 0.719; Vif TR-FRET: -6.3%; ALR inh: -3.0; HNF4A DNA FP: -1.4

2 compounds picked at random from the list so far, as already listed:
How did CCCC#Cc1ccc2c(c1)O[C@@H](CN(C)C(=O)Nc1ccc(OC)cc1)[C@@H](C)CN([C@H](C)CO)S2(=O)=O do in these assays?
rRNA inh HTS: -8.4; FGF22 binding: inactive; AF4-AF9 inh: 1.9; rRNA inh HTS OD600: -10.7; rRNA inh HTS RFP: 2.0

Results for CC(=O)Nc1ccc(S(=O)(=O)N2CCC(c3nc4c(nnn4Cc4ccccc4Cl)c(=O)[nH]3)CC2)cc1 ?
E coli growth: 0.641; ALR inh: 2.6; HNF4A DNA FP: 1.4; rRNA inh HTS: -2.5; FGF22 binding: inactive; AF4-AF9 inh: -2.7; rRNA inh HTS OD600: -19.9; rRNA inh HTS RFP: 2.0

(further entries)
What do the screens show for `O=C(CS(=O)(=O)c1ccccc1)Nc1ncc([N+](=O)[O-])s1`?
E coli growth: 0.632; ALR inh: 40.9; HNF4A DNA FP: -0.1; rRNA inh HTS: -6.4; FGF22 binding: inactive; AF4-AF9 inh: 0.4; rRNA inh HTS OD600: -13.5; rRNA inh HTS RFP: 4.1

What do the screens show for `Fc1ccc(OCCOCCNCC2CCCO2)cc1` (centres undefined)?
E coli growth: 0.707; Vif TR-FRET: 19.0%; ALR inh: -5.4; HNF4A DNA FP: -4.0

Results for O=C(COc1ccc2c3c(c(=O)oc2c1)CCC3)Nc1ccc(CCO)cc1 ?
E coli growth: 0.682; ALR inh: -2.5; HNF4A DNA FP: -0.1; rRNA inh HTS: 7.0; FGF22 binding: inactive; AF4-AF9 inh: -1.3; rRNA inh HTS OD600: -3.8; rRNA inh HTS RFP: -1.7

What do the screens show for `COc1ccc(S(=O)(=O)NC(N)=NCCc2ccc(OC)c(OC)c2)cc1C`?
E coli growth: 0.722; Vif TR-FRET: 10.4%; ALR inh: 1.3; HNF4A DNA FP: 5.4; FGF22 binding: inactive; AF4-AF9 inh: 0.7

Results for C[C@@H]1CN([C@@H](C)CO)C(=O)CCCn2nncc2CO[C@H]1CN(C)S(=O)(=O)c1ccc2c(c1)OCCCO2 ?
Vif TR-FRET: -0.2%; HNF4A DNA FP: -1.5; rRNA inh HTS: 6.9&-1.9; FGF22 binding: inactive; AF4-AF9 inh: 0.1&1.5; rRNA inh HTS OD600: 0.8&-12.3; rRNA inh HTS RFP: 1.2&0.7

What do the screens show for `Fc1ccc(C(c2nnnn2C2CCCC2)N2CCc3ccccc32)cc1` (centres undefined)?
E coli growth: 0.68; Vif TR-FRET: 4.0%; ALR inh: 91.5*; HNF4A DNA FP: -1.7

Results for CCCN1C(=O)/C(=C/c2ccc(N3CCCC3)c(C)c2)NC1=S ?
E coli growth: 0.757; Vif TR-FRET: -3.3%; HNF4A DNA FP: 140.7

How did CN1N=C(C(=O)N2CCCC(C(=O)c3cccc(C(F)(F)F)c3)C2)CCC1=O (centres undefined) do in these assays?
E coli growth: 0.637; Vif TR-FRET: -0.7%; ALR inh: -3.0; HNF4A DNA FP: 3.9; rRNA inh HTS: 8.7; FGF22 binding: inactive; AF4-AF9 inh: -0.9; rRNA inh HTS OD600: 8.5; rRNA inh HTS RFP: -2.0

What do the screens show for `O=C(c1ccco1)N(c1ccccn1)c1ccccn1`?
E coli growth: 0.673; Vif TR-FRET: 3.2%; ALR inh: -9.0; HNF4A DNA FP: 2.9

What do the screens show for `CC=Cc1ccc2n(c1=O)C[C@H]1[C@H](CO)[C@@H](C(=O)N[C@H](C)c3ccccc3)[C@@H]2N1CC` (mixture of isomers)?
rRNA inh HTS: 0.6; FGF22 binding: inactive; AF4-AF9 inh: 0.0; rRNA inh HTS OD600: 9.6; rRNA inh HTS RFP: -1.6

How did O/N=C/c1cn(-c2ccccc2)nc1-c1ccc2c(c1)OCCO2 do in these assays?
Vif TR-FRET: 2.9%; ALR inh: 19.9; HNF4A DNA FP: 0.0

How did COC(=O)/C=C/c1cnc[nH]1 do in these assays?
ALR inh: -13.0; HNF4A DNA FP: 7.5; rRNA inh HTS: 13.6; FGF22 binding: inactive; rRNA inh HTS OD600: 19.2; rRNA inh HTS RFP: -1.9

Results for Cc1ccc(S(=O)(=O)N2CCC(C(=O)N[C@@H](C)C(=O)Nc3ccc(F)cc3)CC2)cc1 ?
E coli growth: 0.635; ALR inh: -0.3; HNF4A DNA FP: 2.2; rRNA inh HTS: 2.1; FGF22 binding: inactive; AF4-AF9 inh: -0.4; rRNA inh HTS OD600: 0.9; rRNA inh HTS RFP: 1.4

How did O=C(c1ccc(Br)cc1)N(Cc1ccco1)C1CCS(=O)(=O)C1 (centres undefined) do in these assays?
E coli growth: 0.669; ALR inh: 9.9; HNF4A DNA FP: 2.7; rRNA inh HTS: 4.0; FGF22 binding: inactive; AF4-AF9 inh: -6.7; rRNA inh HTS OD600: 5.5; rRNA inh HTS RFP: 3.3

What do the screens show for `COc1ccc(S(=O)(=O)Nc2ccc3c(c2)C(=O)N([C@H](C)CO)C[C@H](C)[C@H](CN(C)C(=O)c2ccccc2)OCCCC[C@H](C)O3)cc1`?
rRNA inh HTS: -0.4; FGF22 binding: inactive; AF4-AF9 inh: 1.9; rRNA inh HTS OD600: -13.6; rRNA inh HTS RFP: -1.7

How did COc1ccc2cc3cc(C(=O)NCCCN4CCC(C)CC4)oc3nc2c1 do in these assays?
E coli growth: 0.634; ALR inh: -26.8; HNF4A DNA FP: 0.4
